# PrP UTR inh: suppresses PrP 5' UTR mRNA reporter expression. cell-based PrP 5' UTR mRNA reporter, plate reader. inhibition, % (test concentration not listed). 340,000 tested, 0.35% active. AID 488862;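 active = every replicate at 50% or more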;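 note: 0 = median of the neutral control wells; tested in H4 reporter cells; numbers are from one replicate; inactives centre near -14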
# BJeLR viability: kills HRASV12-expressing BJeLR cells | BJeLR (HRASV12) viability, CellTiter-Glo ATP luminescence, 48 h; reference of the scale not given here | inhibition, % (concentration not given with the values) | 300,000 tested, 0.17% active | AID 1554;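 active = replicate mean above 50%; inconclusive = above 50% but judged a plate artefact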;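 note: 50 nL library stock added to about 25 µL; numbers are from one replicate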
# Mtb hypoxia rep: reduces hypoxia-regulated biosensor signal in M. tuberculosis; M. tuberculosis hypoxia-regulated fluorescent reporter, fluorescence; fluorescence inhibition, % (no concentration beside the values); 300,000 tested, 0.1% active;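 active = 35 to 45% if threefold the growth effect, above 45% if 1.5-fold the growth effect; inactive = the rest, general growth blockers included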;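 note: wells of about 50 µL received 100 nL stock; 0% = vehicle wells and 100% = reference inhibitor wells; whole bacteria with a GFP reporter of the hypoxia response; strong numbers were not always called active; many hits fall short of the cut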
# Autofluor counter: flagged as autofluorescent in microsphere protease counterscreen; compound autofluorescence counterscreen, microsphere flow cytometry; stronger effect = higher value; AID 624483; fluorescence intensity (no concentration beside the values); 360,000 tested, 3.1% active;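 active = at least 3 SD above the mean of all compounds, about 16000 in these data; inconclusive = too few beads counted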;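 note: 100 nL of 1 mM stock went into each well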
# RN4220 kill: S. aureus RN4220 growth inhibition; inhibition, % (no concentration beside the values); OD600, 16 h; 330,000 tested, 0.33% active;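 active = z-score of -3 or lower and OD600 up to 0.18 on both plates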;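 note: plate controls were untreated cells for no effect and reference antibiotic for full effect; stock transfer was 100 nL into about 80 µL; one replicate is shown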
# Sa ugtP lethal: kills S. aureus RN4220 lacking UgtP. S. aureus RN4220 ugtP deletion, OD600 growth, 16 h; some inactives read as strong as hits. growth inhibition, % (concentration not given with the values). 330,000 tested, 0.54% active. AID 1259309;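 active = z-score under -3 and OD600 up to 0.15 on both plates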;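 note: plate controls were untreated wells for no effect and antibiotic for full effect; wells of about 80 µL received 100 nL stock; the first replicate is given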
# Mtb hypoxia rep growth: second read-out of Mtb hypoxia rep, no call of its own (marks repeat the call); growth inhibition, %; measured here: M. tuberculosis growth (absorbance);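 0% = vehicle and 100% = reference antibiotic; read after six days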
# An asterisk follows results filed as active; ? = inconclusive; / = not tested or not shown.
SMILES,PrP UTR inh,BJeLR viability,Mtb hypoxia rep,Mtb hypoxia rep growth,Autofluor counter,RN4220 kill,Sa ugtP lethal
CC(C)[C@H](N)C(=O)NC[C@H](CC(=O)NC[C@H]1CC[C@H](C(=O)O)CC1)c1ccc(Cl)cc1,-39,-3,/,/,3627,/,/
CCN1C(=O)[C@H]2[C@@H](c3ccc(-c4ccc(Cl)c(Cl)c4)cc3)N[C@@](Cc3ccccc3)(C(=O)OC)[C@H]2C1=O,-17,7,/,/,3032,/,/
CCSc1nc2c(c(=O)[nH]c(=O)n2C)n1Cc1ccc(Cl)cc1,2,/,/,/,3585,-3.8,4
O=C(CCN1CCN(CCO)CC1)Nc1ccc(C2CCCC2)cc1,-16,16,-2,3,5213,-2.5,-11
Cc1ccc2cc(COC(=O)c3ccco3)c(=O)[nH]c2c1,-7,-2,-1,5,?,4.7,-7
CC(C)NC(=O)COC(=O)/C=C/c1ccco1,-6,-3,6,0,3175,1.7,0
Cc1sc(-n2c(C)cc(C=C3C(=O)NC(=O)NC3=O)c2C)c(C#N)c1C,/,-2,-6,11,/,-4.0,-3
COC(=O)C(CCSC)NS(=O)(=O)c1ccc(Cl)cc1 (centres undefined),-20,-4,-4,0,2088,7.4,8
CCOCc1nnc(NC(=O)c2cccs2)s1,-12,-13,12,6,8768,3.4,-1
CCN(CC)S(=O)(=O)c1cc(NC(=O)CCNC(=O)c2ccco2)ccc1C,-10,-7,0,-20,3980,2.0,2
COc1ccc(C2C(C(C)=O)=C(Nc3ccccc3)CC(C)(O)C2C(C)=O)cc1OC (centres undefined),-20,-7,5,14,13534,1.8,-2
O=C(Cc1cccc([N+](=O)[O-])c1)Nc1cccc(C(=O)N2CCCC2)c1,-11,/,6,8,3020,4.1,-12
CCOc1cc(C=NNC(=O)c2ccc(NC(=O)C(C)(C)C)cc2)ccc1OC(=O)c1cccc(C)c1,/,/,-1,16,/,11,12
C/C(=N\Nc1ccccc1[N+](=O)[O-])c1ccccc1O,-71,-7,/,/,2949,/,/
CCOc1ccc(S(=O)(=O)c2cn(C)c3cc(OC)c(OC)cc3c2=O)cc1,-11,-21,-8,-6,5188,4.8,12
Cc1nnc(SCC(=O)NCC(=O)Nc2ccc(F)c(F)c2F)n1Cc1ccccc1,-28,-3,2,5,4450,1.8,4
C/C(Cl)=C/Cn1c(SC(C)C)nc2c1c(=O)[nH]c(=O)n2C,-3,/,/,/,4616,1.4,-5
O=c1n(Cc2ccccc2)nc2n1-c1ccccc1SC2,-21,6,0,12,6167,4.0,8
COc1ccc(/C=N/NC(=O)c2cccc(NC(=O)c3ccc(Cl)cc3)c2)c(OC)c1,-16,5,/,/,2461,/,/
COc1ccccc1NC(=O)C1CCN(S(C)(=O)=O)CC1,-9,-11,-8,1,3285,4.9,12
COc1cccc(C(=O)N2C[C@H]3C[C@@H](C2)c2cccc(=O)n2C3)c1,-20,-1,/,/,5278,5.1,-10
CC(NC(=O)c1ccnn1C)C1CCCO1 (centres undefined),-17,2,-2,1,2141,1.3,2
Cc1ccccc1CN1CCN(S(=O)(=O)c2cccc3nsnc23)CC1,-13,6,9,-4,4552,-0.7,8
CNc1nc(SCc2ccccc2)nc(N2CCOCC2)n1,8,6,-8,2,11491,-1.8,4
CC1CCN(CC(=O)N2c3ccccc3CC2C)CC1 (centres undefined),-30,7,9,7,3781,5.5,4

# Structures above containing a furan ring, fused or not, in the order listed:
SMILES,PrP UTR inh,BJeLR viability,Mtb hypoxia rep,Mtb hypoxia rep growth,Autofluor counter,RN4220 kill,Sa ugtP lethal
Cc1ccc2cc(COC(=O)c3ccco3)c(=O)[nH]c2c1,-7,-2,-1,5,?,4.7,-7
CC(C)NC(=O)COC(=O)/C=C/c1ccco1,-6,-3,6,0,3175,1.7,0
CCN(CC)S(=O)(=O)c1cc(NC(=O)CCNC(=O)c2ccco2)ccc1C,-10,-7,0,-20,3980,2.0,2

# The list goes on.
SMILES,PrP UTR inh,BJeLR viability,Mtb hypoxia rep,Mtb hypoxia rep growth,Autofluor counter,RN4220 kill,Sa ugtP lethal
Cc1noc(C)c1NC(=O)N(C)C[C@H]1Oc2ccc(NC(=O)Nc3ccccc3)cc2C(=O)N([C@H](C)CO)C[C@@H]1C,-22,/,4,-2,4138,3.6,7
CC1CCCC(n2c(=S)[nH]c3ccccc3c2=O)C1C (centres undefined),-14,-2,-3,3,15157,-7.8,-48
COc1ccc(S(=O)(=O)C(C#N)c2nc3ccccc3nc2N2CCCCC2)cc1 (centres undefined),-12,-3,6,-1,2706,-8.9,4
O=P(c1cccs1)(c1cccs1)c1cccs1,-16,3,4,11,22461*,0.7,-5
COc1ccccc1N(CC(=O)Nc1c(C)n(C)n(-c2ccccc2)c1=O)S(=O)(=O)c1ccc(C)cc1,1,-9,2,9,2110,1.1,4
CCOC(=O)c1c(C)[nH]c(C)c1S(=O)(=O)N(C)CC(=O)Nc1cccc(C)c1,4,-15,-1,-8,4339,-1.8,-5
O=C1NC(=Nc2ccc(F)cc2)CS1,-21,-18,7,-3,4484,2.3,16
O=C(CCl)Nc1cccc(Oc2cnccn2)c1,5,0,16,24,3642,0.9,-4
Cc1ccc(S(=O)(=O)NCC(=O)N(CC(=O)NCC2CCCO2)C2CCCC2)cc1 (centres undefined),-9,-2,/,/,2405,0.9,0
O=C(CN1C(=O)CCS(=O)(=O)c2ccccc21)NCc1ccccc1,-13,8,12,5,2955,5.0,-2
O=C(CN1CCN(Cc2ccccc2)CC1)NN=Cc1c[nH]c2ccccc12,/,/,-2,3,/,3.7,1
CCOc1ccc(C(=O)Nc2nnc(C)s2)cc1OCC,6,1,0,16,20767*,-2.9,-6
COC(=O)C1=C(N)OC2=C(C(=O)CCC2)C1c1cccnc1 (centres undefined),-9,-4,-6,-10,3198,1.5,2
CS(=O)(=O)c1ccc(C(=O)N2CCN(S(=O)(=O)c3ccc(C4CCCCC4)cc3)CC2)cc1,-5,/,-4,7,6069,3.0,-5
CC(NC(=O)c1cc(COc2ccc3ncccc3c2)on1)c1ccc(F)cc1 (centres undefined),-1,8,-1,12,4181,-0.1,6
COCCCNC(=O)CN1C(=O)COc2ccc(S(=O)(=O)N3CC(C)CC(C)C3)cc21 (centres undefined),-14,-2,16,13,5442,4.5,4
Cc1occc1-c1nnc(SCC(=O)O)n1-c1ccccc1,-5,2,7,5,4269,3.2,-3
CC(=O)c1ccc(NC(=O)NNS(=O)(=O)c2ccc(F)cc2)cc1,-3,-13,-1,-6,5031,-1.3,6
O=C(CC(c1ccccc1)c1ccccc1O)NCc1ccco1 (centres undefined),-14,4,7,5,3316,-14,-4
Cc1cc(C(=O)NNS(=O)(=O)c2ccc(C(C)(C)C)cc2)nn1C(C)(C)C,-14,-2,7,1,6908,5.3,-5
CCc1ccc(N2C(=O)C3C4C=CC(CC4)C3C2=O)cc1 (centres undefined),-22,3,6,8,/,2.2,2
CNC(=O)COC(=O)c1[nH]c(C)c(C(C)=O)c1C,-4,-4,7,2,16399*,-0.1,2
COC(=O)c1ccc(-c2ccco2)n1Cc1cccc(C)c1,-4,-4,10,23,3905,-2.7,94*
COc1ccccc1/C=C/C=Nn1c(-c2ccc(F)cc2)n[nH]c1=S,/,/,12,14,/,16,-6
Cc1cc(C)c2cc(CN(CCCN(C)C)C(=S)NCc3ccccc3)c(=O)[nH]c2c1,-14,-5,4,15,4445,-2.5,1
SMILES,PrP UTR inh,BJeLR viability,Mtb hypoxia rep,Mtb hypoxia rep growth,Autofluor counter,RN4220 kill,Sa ugtP lethal
Cc1ccc(C(=O)NCc2ccc3c(c2)OCO3)c(C)c1,9,4,18,3,3002,3.9,5
CC1CCCN(C(=O)COC(=O)Cn2cnc3ccccc32)C1 (centres undefined),0,/,4,4,3635,1.6,1
COc1ccc(C(=O)NCc2nnc(SCC(=O)Nc3nc4ccccc4s3)o2)cc1,3,1,/,/,2542,/,/
O=S(=O)(CCc1nc2ccccc2s1)c1ccc2ccccc2c1,-18,-6,3,3,3150,9.9,1
CC(=O)N1CCN(C(=O)CNC(=O)c2ccc(Br)o2)CC1,-6,5,4,-2,6353,3.2,5
CCCCc1nc2cc(Cl)ccc2o1,-20,-1,9,20,4220,13,7
CC1=Nc2ccccc2/C1=C/c1nc(-c2ccc(C)s2)oc1O,-38,3,2,2,4646,-0.1,55
O=C(CN1C(=O)NC2(CCOc3ccccc32)C1=O)NCc1ccccc1 (centres undefined),-2,/,0,0,2841,-0.3,-5
COc1cccc2cc(C(=O)Oc3ccc(NC(C)=O)cc3)c(=O)oc12,-13,-4,-2,8,2579,-3.8,-4
CC1(C)Cc2nc(N3CCOCC3)c(C#N)cc2CO1,-14,-1,6,13,8373,1.1,2
CCOC(=O)N1CCN(c2c(NCCc3ccc(OCC)c(OCC)c3)c(=O)c2=O)CC1,-14,-25,1,3,24406*,1.6,3
Cc1ccc(C(=O)N2CCCC(C(=O)Nc3cccc(-c4ccc(F)cc4)c3)C2)cn1 (centres undefined),-7,1,-6,-3,5799,-2.2,-10
Cc1cc(Cl)ccc1NC(=S)Nc1ccccn1,-31,-4,18,13,2387,-2.6,1
CCN(CC)C(=O)COc1ccc2c(-c3ccc(OC)cc3)cc(=O)oc2c1,-11,-5,13,2,3538,-3.2,15
CCOC(=O)CN1C(=O)C(O)(CC(=O)c2ccco2)c2ccccc21 (centres undefined),-10,-1,/,/,4989,3.0,-4
CC(=NNC(=O)CNc1cccc(C)c1)c1ccc(Br)s1,/,/,4,6,/,-19,-19
COc1ccc(C(=O)NC(Cc2ccc(OC(=O)c3ccc(OC)cc3)cc2)C(=O)O)cc1 (centres undefined),5,-6,3,5,4684,0.8,0
O=C(COC(=O)c1cc([N+](=O)[O-])ccc1N1CCOCC1)c1ccc(F)cc1,-9,/,2,4,8563,-0.3,4
CCCCN(C(=O)c1ccc(S(=O)(=O)N2CCCCC2)cc1)C1CCS(=O)(=O)C1 (centres undefined),-31,-7,-7,-1,5108,-0.6,1
COCCn1c(SCC(=O)c2ccccc2)nc2c(c1=O)SC(C)C2 (centres undefined),-8,17,-3,-5,7766,-3.9,-3
COc1ccc2c(c1)c(=O)oc1cc(OCC(=O)N3CCC(C)CC3)ccc12,-7,-4,1,3,20779*,4.6,3
CC(=O)Nc1ccc(-c2cc(C(=O)O)c3ccc(C)cc3n2)cc1,-9,-3,2,8,4093,1.5,-5
C=CCN1C(=O)NC(c2ccc(OC)cc2)(C(F)(F)F)S/C1=C(\C#N)c1nnc(N2CCOCC2)n1-c1ccccc1 (centres undefined),-5,-1,6,5,2304,12,-11
Cc1noc(C)c1NC(=O)N(C)CC1Oc2ccc(NC(=O)CCN3CCOCC3)cc2C(=O)N(C(C)CO)CC1C (centres undefined),/,/,5,-3,/,3.3,1
COc1ccc(S(=O)(=O)N2CCOC2CNC(=O)C(=O)NCc2ccco2)cc1C (centres undefined),-9,5,8,8,4766,2.7,10
SMILES,PrP UTR inh,BJeLR viability,Mtb hypoxia rep,Mtb hypoxia rep growth,Autofluor counter,RN4220 kill,Sa ugtP lethal
O=C(NC1CC1)C1CCCN1S(=O)(=O)c1ccc2ccccc2c1 (centres undefined),-27,-17,7,4,8144,-0.2,4
Cc1cc(C)c(C#N)c(SC2CCCCC2=O)n1 (centres undefined),-28,1,1,-2,11332,4.8,1
COc1ccccc1Nc1nc2ccccc2[nH]1,-78,1,/,/,5712,-1.9,2
CCc1nnc(NC(=O)c2cc(-c3ccccn3)nc3ccccc23)s1,-17,-3,7,2,3274,2.6,1
Cc1cccc(NC(=O)CSc2nc3ccc(NC(=O)CSc4nnnn4-c4ccccc4)cc3s2)c1C,/,/,1,4,/,-6.9,-1
O=C(Cn1c(=O)c2sccc2n(Cc2cccc([N+](=O)[O-])c2)c1=O)NCCc1ccccc1,-4,12,3,8,2428,-0.1,18
COc1ccc(C(C2C(=O)CC(C)(C)CC2=O)C2C(=O)CC(C)(C)CC2=O)cc1,-21,-4,9,4,5801,8.9,5
Cc1ccc(CN(Cc2ccccc2)C(=S)NCC(=O)N2CCC3(CC2)OCCO3)o1,-12,-1,3,1,4595,8.0,4

# 3 structures from above, ordered by molecular weight, low to high.
SMILES,PrP UTR inh,BJeLR viability,Mtb hypoxia rep,Mtb hypoxia rep growth,Autofluor counter,RN4220 kill,Sa ugtP lethal
Cc1cc(C)c(C#N)c(SC2CCCCC2=O)n1 (centres undefined),-28,1,1,-2,11332,4.8,1
CCc1nnc(NC(=O)c2cc(-c3ccccn3)nc3ccccc23)s1,-17,-3,7,2,3274,2.6,1
COc1ccc(C(C2C(=O)CC(C)(C)CC2=O)C2C(=O)CC(C)(C)CC2=O)cc1,-21,-4,9,4,5801,8.9,5
